Assay outcomes deposited in PubChem by several laboratories.
A1 inh = inhibitors of the anti-apoptotic protein A1, read as caspase activation; MEF A1-2A-BIM cells, Caspase-Glo 3/7 luminescence, 3 h; percent of clofoctol response, vehicle zero; caspase activation, % (concentration not given with the values); hit rate 0.066% among 330,000; AID 2462;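 active = over half of replicate activation scores above 10%, or exactly half above 10 with the replicate mean above 10; inconclusive = replicate mean below 10 yet half the replicates above 10; inactive = over half of replicates below 10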;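 note: wells of about 30 µL received 50 nL stock; many hits fall short of the cut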
T cruzi repl = blocks replication of Trypanosoma cruzi; T. cruzi beta-gal in NIH3T3, luminescence, 90 h; inhibition, % (concentration not given with the values); hit rate 1.4% among 300,000;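 active = mean inhibition across valid replicates above about 55%, limit read from the data; inconclusive = mean below that limit but half or more replicates reach it; inactive = mean below it, under half of replicates reach it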;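 note: signal also drops with host cell toxicity which is not excluded here; 0% = plate median of DMSO wells and 100% = zero luminescence signal; higher percent means less beta-gal luminescence so fewer parasites; stock transfer was 50 nL into about 50 µL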
LANA-H2B inh = blocks KSHV LANA binding to histone H2A/H2B; cell-free LANA-H2A/H2B peptide, fluorescence polarization; inhibition, % (no concentration beside the values); hit rate 0.6% among 320,000; AID 2629; in the data active = inhibition mostly above about 10%, no sharp cut-off; inactive = mostly below about 6.7%;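 note: stock transfer was 7.5 nL into about 10 µL; 0% = median of vehicle wells and 100% = median of positive control wells; one replicate is shown; the record names a cut of 25% in any replicate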
Vif TR-FRET = inhibitors of Vif binding to APOBEC3G peptide, primary screen, biochemical, TR-FRET, GST-Vif 1-94, biotin-A3G peptide, dose response retest (AID 1117319) | TR-FRET GST-Vif / biotin-A3G peptide binding; higher % means a stronger effect; test concentration not given here; strong numbers were not always called active | inhibition, %; hits with a dose series show IC50 in µM | hit rate 0.57% among 260,000;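 active = above the screen mean plus three standard deviations and confirmed in dose response; inconclusive = results disagree or hit not tested in dose response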;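 note: Vif residues 1-94 fused to GST binding biotinylated APOBEC3G peptide 110-148; 0% = full assay without inhibitor and 100% = GST in place of GST-Vif; retest series ran down from 100 µM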
Calb FLC = C. albicans growth modulation with fluconazole | growth inhibition, % (test concentration not listed) | AID 1979 | hit rate 0.57% among 300,000 | C. albicans CaCi-2 (fluconazole-resistant clinical isolate) + fluconazole, Alamar Blue growth, 48 h;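 active = most replicates above 75%; inconclusive = exactly half above 75%; inactive = most below 75%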;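 note: all wells also contain fluconazole at 8 µg/ml as a sub-toxic cotreatment; 0% = median of DMSO wells and 100% = median of geldanamycin control wells; wells of about 8 µL received 7.5 nL stock; the first replicate is given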
RanGTP-Impb inh = inhibitors of RanGTP-importin-beta interaction, primary screen, biochemical, FRET, CFP-Ran, YFP-importin-beta, homogeneous | cell-free CFP-Ran/YFP-importin-beta FRET ratio | inhibition, % (no concentration beside the values) | hit rate 1.1% among 300,000 | AID 2216;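 active = most replicates above 15%; inconclusive = exactly half above 15%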;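 note: 0% = DMSO wells and 100% = Ran loaded with GDP instead of GTP; wells of about 40 µL received 100 nL stock; the first replicate is given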
AF4-AF9 inh = blocks AF4 peptide binding to human AF9; P42568; hit rate 0.47% among 350,000; AlphaScreen, biotin-AF4 peptide binding to FLAG-AF9; AID 651704; inhibition, % at 10 µM;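 active = every replicate reaching a set inhibition limit, whatever the replicate mean, cut at about 25% in these data; inconclusive = mean inhibition reaches that limit but some replicates miss it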;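 note: 0% = plate neutral control median and 100% = total signal loss; the record names both 10 and 1 µM as test concentration; the first replicate is given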
Target sequence (P42568 whole entry, looked up): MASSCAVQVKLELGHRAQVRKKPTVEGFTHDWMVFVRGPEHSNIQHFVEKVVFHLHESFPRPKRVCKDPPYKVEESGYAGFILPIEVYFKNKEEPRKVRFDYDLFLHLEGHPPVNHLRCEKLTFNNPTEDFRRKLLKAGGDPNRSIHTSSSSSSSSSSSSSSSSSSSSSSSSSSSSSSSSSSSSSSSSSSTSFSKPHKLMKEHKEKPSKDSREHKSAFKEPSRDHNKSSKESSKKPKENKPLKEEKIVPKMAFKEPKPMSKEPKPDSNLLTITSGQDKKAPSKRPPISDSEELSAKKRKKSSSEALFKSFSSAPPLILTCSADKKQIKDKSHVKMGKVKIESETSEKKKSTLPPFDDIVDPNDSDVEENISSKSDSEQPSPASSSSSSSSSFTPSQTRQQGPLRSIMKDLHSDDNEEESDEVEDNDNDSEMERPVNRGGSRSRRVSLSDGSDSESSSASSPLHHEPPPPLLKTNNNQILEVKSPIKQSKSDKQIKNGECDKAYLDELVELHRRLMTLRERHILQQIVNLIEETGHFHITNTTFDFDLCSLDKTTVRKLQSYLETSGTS
Beta apoptosis = blocks beta cell apoptosis | INS-1E cytokine-induced death, ATP luminescence, 48 h; percent of positive-control rescue, neutral wells zero | protection from apoptosis, % (test concentration not listed) | hit rate 0.8% among 300,000 | AID 435005;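 active = all replicates at 75% or more, or half of them and the mean; inconclusive = half reach 75% but not the mean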;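 note: 0% = cytokine-treated negative control wells and 100% = positive control rescue; higher means more ATP so stronger rescue from cytokine killing; wells of about 40 µL received 100 nL stock; the first replicate is given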
* marks the source's active call; other numbers are inactive results; ? = inconclusive; · = no result given; & = joins results of further samples. Hits appear at their usual frequency; about 4.3% have a hit in one of these screens.

SMILES	A1 inh	T cruzi repl	LANA-H2B inh	Vif TR-FRET	Calb FLC	RanGTP-Impb inh	AF4-AF9 inh	Beta apoptosis
Cc1c(NS(=O)(=O)c2ccc(Br)cc2)c(=O)n(-c2ccccc2)n1C	-0.3	-17	6.2	·	-5	-0.1	-0.7	-4
Cc1cc(C)n(-c2nncn2NC(=O)c2ccc(Cl)cc2O)n1	0.2	-2	-5.8	0%	13	3.6	·	3
Fc1ccc(Oc2ncccn2)c(F)c1	0.4	-2	12	-1%	-1	6.8	0.4	-1
Nc1nonc1C(=O)OCC(=O)N1CCCCC1	0.8	·	1.3	3%	-2	0.9	·	-4
Oc1c(CN2CCCC(C(F)(F)F)C2)cc(Cl)c2ccccc12 (stereo not given)	0.3	-8	-7.4	10%	13	?	3.9	2
COc1cccc(C2CC(c3cccs3)=NN2C(=O)CSC2=NN3CCCC(=O)N=C3S2)c1OC (stereo not given)	-0.2	14	-3.9	1%	13	4.5	11	-1
O=C(Nc1ccc(CN2CCCCC2)cc1)c1cccc(F)c1	-0.5	-8	-1.2	-3%	-42	-3.4	-0.5	5
Cc1ccc(NC(=O)COC(=O)CCc2c(C)nc3nc(N)nn3c2C)cc1C	0.2	·	-1.6	2%	·	·	1.5	-3
O=C(OCc1cccc2ccccc12)c1ccc2c(=O)[nH]c(CN3CCOCC3)nc2c1	·	-9	·	0%	0	?	·	·
COC(=O)CN1C(=O)[C@H]2[C@@H](c3ccc(C)o3)N3C(=O)CN(Cc4ccccc4)C(=O)[C@@]3(Cc3ccccc3)[C@H]2C1=O	0.4	-9	-4.4	·	2	-1.1	-6.3	-1
COc1ccc(CC(=O)Nc2ccc3c(c2)CCC3)cc1S(=O)(=O)N1CCOCC1	3.5	-11	4.6	-3%	5	-2.3	·	-3
Cc1ccc(C)c(C(=O)COC(=O)c2cc([N+](=O)[O-])ccc2N2CCOCC2)c1	1.3	14	1.2	-1%	-2	1.3	7.8	·
C=Cc1ccc(Cn2c(=O)n(C)c(=O)c3sccc32)cc1	-0.2	12	1.6	-7%	-3	-0.8	-4.4	·
CCCCN1C(N)=NC[C@@H]1c1ccccc1	1.3	-12	-1.8	·	-12	-6.9	·	-2
CC(Sc1nnc(-c2cccnc2)o1)C(=O)NC1CCCCC1 (stereo not given)	1.5	·	0.8	1%	·	·	1.2	3
CCC(=O)c1ccc(OCC(=O)OCC(=O)Nc2ccc(C)c(S(=O)(=O)N3CCCCC3)c2)cc1	-0.1	·	-1.9	7%	·	·	1.0	-2
CCN(CC)CCN(C(=O)c1ccc(S(=O)(=O)N2CCOCC2)cc1)c1nc2cc3c(cc2s1)OCCO3	1.1	51	3.0	·	9	0.0	0.3	-6
Cc1ccccc1-n1c(C)cc(/C=N/NC(=O)c2ccc(CN3CCOCC3)cc2)c1C	-0.1	-4	0.3	16%	1	7.3	·	-8
CCOc1ccc(OCc2ccc(C(=O)N3N=C(C(F)F)CC3(O)C(F)F)o2)cc1 (stereo not given)	0.1	7	-2.4	33%	-3	0.7	0.4	4
COc1cc(C(=O)NCc2ccc(S(N)(=O)=O)cc2)ccc1OCC(=O)N1CCOCC1	1.2	·	4.2	1%	·	·	-19	1
COc1ccc(NC(=S)NCCN2CCC(C)CC2)cc1	-0.3	-11	3.1	·	-79	1.9	-1.4	-7
O=C(COc1ccccc1F)NNC(=O)Cc1ccc(S(=O)(=O)N2CCOCC2)s1	0.4	-3	-3.1	·	·	-0.4	-0.4	-5
CCN1CCN(S(=O)(=O)c2ccc(-c3cc(C)no3)s2)CC1	1.0	-27	-1.8	·	-3	?	-10	-10
COc1cccc(/C=C/C(=O)OCC(=O)NCCCc2ccccc2)c1OC	-0.7	·	-1.2	·	·	·	3.0	1
N#Cc1c(N)n(-c2ccccc2)c(=O)c2cc([N+](=O)[O-])ccc12	0.3	4	-2.2	5%	5	-2.4	-1.8	-2

(cont.)
SMILES	A1 inh	T cruzi repl	LANA-H2B inh	Vif TR-FRET	Calb FLC	RanGTP-Impb inh	AF4-AF9 inh	Beta apoptosis
CC(C)(C)OC(=O)C[C@H]1C/C=C\C[C@H](CC(=O)N(CCO)Cc2ccccc2)C(=O)N[C@@H](Cc2ccccc2)COC1=O	0.1	·	-0.8	·	·	·	-0.2	-3
Cc1ccc(Oc2nnc(-c3cccs3)c3ccccc23)cc1C	-0.2	12	-2.6	-8%	19	-3.5	·	21
CCN1/C(=C/C=C/C=C/C=C/c2sc3ccccc3[n+]2CC)Sc2ccccc21	-0.1	52	-8.1	4.3µM*	0	-3.3	?	23
O=C(CS(=O)(=O)c1ccccc1)Nc1nc2ccccc2s1	-1.2	-11	1.5	1%	-19	2.6	-3.0	-13
CCOc1ccc(N2C(=O)CN=C2Nc2ccccc2F)cc1	?	-5	-4.5	?	2	2.1	·	1
O=C(Nc1cccc(C(F)(F)F)c1)c1cc(Br)cc2c1OCC2	-0.1	-10	-1.2	-18%	-5	?	-0.9	-5
CC(=O)c1ccc(S(=O)(=O)N2CCNCC2)cc1	0.3	-29	3.1	·	-23	-1.4	-3.8	-3
O=C(CCC(=O)OCc1ccc([N+](=O)[O-])cc1Cl)Nc1ccccc1	0.4	-9	0.0	·	2	-0.3	-1.1	0
Cc1ccc(S(=O)(=O)N2CCCCC2)cc1NC(=O)C1CC(=O)N(c2ccc3c(c2)OCCO3)C1 (stereo not given)	-0.4	-4	-4.0	-1%	6	0.7	3.8	2
CC(=O)NC(=S)Nc1ccc(S(=O)(=O)Nc2nc(C)cc(C)n2)cc1	-0.3	-4	-0.8	·	23	4.7	-0.8	1
Cc1cc(NS(=O)(=O)N(C)C)ccc1C(C)C	0.2	19	-0.2	8%	2	-2.3	·	0
Cn1c(=O)[nH]c(=O)c2c1nc(Br)n2CC(O)COc1ccc(Cl)cc1 (stereo not given)	0.5	-1	-9.8	-18%	-5	10	-17	-4
NC(=O)[C@@H]1CCNc2c(I)cc([N+](=O)[O-])cc2C(=O)N[C@@H](CCC(=O)O)C(=O)N[C@@H](CO)C(=O)N1	?	·	4.5	?	·	·	·	-10
Cc1ccc(C(=O)O/N=C2\CCCc3ccccc32)cc1	-1.2	-7	0.4	-5%	-23	4.6	·	-6
O=C(NNC(=O)c1sc2cccc(Cl)c2c1Cl)Nc1ccccc1	0.0	29	-4.4	-2%	0	1.0	·	0
CCc1c(C)sc(NC(=S)Nc2cccnc2)c1C(=O)OC	-0.4	-12	5.0	3%	-2	0.6	-3.9	-1
Cn1nnc(C(O)CNCc2cccs2)n1 (stereo not given)	-0.6	-10	-2.5	6%	1	-2.5	·	-5
Cc1cccc(NC(=O)CNC(=O)c2ccccc2Cl)n1	-0.5	-3	6.6	·	0	-3.6	1.8	-9
O=C(NNC1=NS(=O)(=O)c2ccccc21)C1CC(=O)N(c2ccccc2)C1 (stereo not given)	-0.3	-5	1.5	12%	-5	1.9	-8.9	-6
COc1ccc(/C=N/n2cnc3c([nH]c4ccccc43)c2=O)cc1CO	-0.8	-1	-3.9	-4%	2	4.2	0.8	2
CCOc1cccc2sc(N(CCN(C)C)C(=O)c3ccc4ccccc4c3)nc12	-0.8	14	-4.5	17%	2	-4.2	·	2
O=C(c1cc(-c2ccncc2)nc2ccccc12)N1CCN(Cc2ccccc2)CC1	0.1	·	-0.5	-5%	·	·	4.4	9
Cc1cc(C)cc(Oc2nc(-c3ccccc3)cc(C)c2S(C)(=O)=O)c1	-1.6	18	6.3	6%	13	2.8	·	·
CN1CCC(=O)N([C@H](CO)c2ccccc2)CC1	-0.1	-26	1.3	·	-1	3.2	-6.0	-6
CC1(C)Cc2c(cnn2-c2cccc(F)c2)C(NC(=O)c2cc[n+]([O-])cc2)C1 (stereo not given)	0.2	14	-1.8	·	1	0.9	0.7	-2

Some of the entries so far, as comma-separated lines.
compound,A1 inh,T cruzi repl,LANA-H2B inh,Vif TR-FRET,Calb FLC,RanGTP-Impb inh,AF4-AF9 inh,Beta apoptosis
CC(C)(C)OC(=O)C[C@H]1C/C=C\C[C@H](CC(=O)N(CCO)Cc2ccccc2)C(=O)N[C@@H](Cc2ccccc2)COC1=O,0.1,·,-0.8,·,·,·,-0.2,-3
Cc1ccc(Oc2nnc(-c3cccs3)c3ccccc23)cc1C,-0.2,12,-2.6,-8%,19,-3.5,·,21
CCN1/C(=C/C=C/C=C/C=C/c2sc3ccccc3[n+]2CC)Sc2ccccc21,-0.1,52,-8.1,4.3µM*,0,-3.3,?,23
O=C(CS(=O)(=O)c1ccccc1)Nc1nc2ccccc2s1,-1.2,-11,1.5,1%,-19,2.6,-3.0,-13
CCOc1ccc(N2C(=O)CN=C2Nc2ccccc2F)cc1,?,-5,-4.5,?,2,2.1,·,1
O=C(Nc1cccc(C(F)(F)F)c1)c1cc(Br)cc2c1OCC2,-0.1,-10,-1.2,-18%,-5,?,-0.9,-5
CC(=O)c1ccc(S(=O)(=O)N2CCNCC2)cc1,0.3,-29,3.1,·,-23,-1.4,-3.8,-3
O=C(CCC(=O)OCc1ccc([N+](=O)[O-])cc1Cl)Nc1ccccc1,0.4,-9,0.0,·,2,-0.3,-1.1,0
Cc1ccc(S(=O)(=O)N2CCCCC2)cc1NC(=O)C1CC(=O)N(c2ccc3c(c2)OCCO3)C1 (stereo not given),-0.4,-4,-4.0,-1%,6,0.7,3.8,2
CC(=O)NC(=S)Nc1ccc(S(=O)(=O)Nc2nc(C)cc(C)n2)cc1,-0.3,-4,-0.8,·,23,4.7,-0.8,1
Cc1cc(NS(=O)(=O)N(C)C)ccc1C(C)C,0.2,19,-0.2,8%,2,-2.3,·,0
Cn1c(=O)[nH]c(=O)c2c1nc(Br)n2CC(O)COc1ccc(Cl)cc1 (stereo not given),0.5,-1,-9.8,-18%,-5,10,-17,-4
NC(=O)[C@@H]1CCNc2c(I)cc([N+](=O)[O-])cc2C(=O)N[C@@H](CCC(=O)O)C(=O)N[C@@H](CO)C(=O)N1,?,·,4.5,?,·,·,·,-10

(list continues)
SMILES	A1 inh	T cruzi repl	LANA-H2B inh	Vif TR-FRET	Calb FLC	RanGTP-Impb inh	AF4-AF9 inh	Beta apoptosis
COc1ccc(Cn2c(C(F)(F)F)ccc(C(N)=O)c2=O)cc1	0.4	-8	2.3	4%	-10	-1.6	-1.5	-7
COc1cc2nc(C3CCC3)n(NC(=O)C(OC(C)=O)c3ccccc3)c(=O)c2cc1OC (stereo not given)	0.2	0	-1.8	-1%&10%	1	0.4	·	-2
COc1ccc(-n2c(=S)[nH]c3sc4c(c3c2=O)CCN(C)C4)cc1	0.8	9	3.3	7%	7	23*	·	-2
CCN(CC)C(=O)COc1ccc(-c2nnc(Nc3ccc(OC)c(C(=O)NC)c3)c3ccccc23)cc1	1.4	11	-10	·	5	-5.0	0.6	·
Cc1ccc(C(=O)CSc2ccc(-c3ccccc3)nn2)cc1	-0.8	8	1.7	·	-3	-1.2	-3.5	-3
Oc1ccc(/C=N/N2CCCCC2)cc1O	-2.9	-70	3.7	21%	7	0.1	2.7	12
